High-throughput results as filed in PubChem BioAssay.
RecA splice inh: blocks M. tuberculosis RecA intein splicing | P9WHJ3 | cell-free RecA intein splicing, fluorescence | inhibition, %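 (about 9 µM by stock and volumes)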 | 290,000 compounds, 0.75% hits | AID 2221; in the data active = inhibition above about 30%; inconclusive = no clear call, values can overlap the other calls;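 also: 0% = vehicle wells and 100% = reference inhibitor control wells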
Target sequence (P9WHJ3 whole entry, looked up, canonical isoform): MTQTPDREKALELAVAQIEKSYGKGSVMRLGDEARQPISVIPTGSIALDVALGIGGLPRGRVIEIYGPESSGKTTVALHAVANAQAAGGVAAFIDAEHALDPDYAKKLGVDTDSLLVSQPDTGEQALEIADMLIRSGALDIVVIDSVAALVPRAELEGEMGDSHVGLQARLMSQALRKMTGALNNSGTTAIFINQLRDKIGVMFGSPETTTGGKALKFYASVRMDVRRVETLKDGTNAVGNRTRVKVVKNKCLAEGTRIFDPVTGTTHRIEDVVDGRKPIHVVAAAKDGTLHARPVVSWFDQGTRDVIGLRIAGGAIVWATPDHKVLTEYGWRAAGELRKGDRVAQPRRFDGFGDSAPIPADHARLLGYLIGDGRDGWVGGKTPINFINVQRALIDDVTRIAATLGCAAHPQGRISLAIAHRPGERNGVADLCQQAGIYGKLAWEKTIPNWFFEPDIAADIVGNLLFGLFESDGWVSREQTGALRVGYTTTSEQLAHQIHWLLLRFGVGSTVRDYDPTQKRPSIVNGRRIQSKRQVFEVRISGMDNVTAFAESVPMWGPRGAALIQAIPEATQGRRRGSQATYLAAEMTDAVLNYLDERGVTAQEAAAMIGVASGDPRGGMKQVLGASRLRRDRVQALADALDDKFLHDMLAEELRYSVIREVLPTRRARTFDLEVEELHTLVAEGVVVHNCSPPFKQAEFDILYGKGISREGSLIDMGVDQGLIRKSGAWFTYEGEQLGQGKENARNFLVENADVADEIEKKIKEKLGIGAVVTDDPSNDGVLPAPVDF
Arbovirus anti: arbovirus infection inhibition; arbovirus infection cell-based antiviral screen; inhibition, % at 10 µM; 200,000 compounds, 0.37% hits;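 active = inhibition from about 30%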;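 also: bluetongue infection of BSR cells; cell survival read as ATP light after 72 h; 0% = infected wells without compound and 100% = uninfected wells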
Mtb bLac sens: beta-lactam sensitization of Mtb H37Rv; AID 434955; inhibition, % at 25 µM; M. tuberculosis H37Rv growth with meropenem, percent inhibition; hits of this screen are not shown here; 330,000 compounds, 0.27% hits;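 active = about 74% or more and at least 40 points above the plate without the antibiotic, then above 30% in a dose series; inconclusive = first-round hits that could not be retested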;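 also: growth measured after seven days incubation then overnight dye step; 0% = bacteria only wells and 100% = bacteria with antibiotic; twin plates without the antibiotic show which effects depend on it; some results filed as inactive read as strong as hits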
YopH PTP inh: blocks Yersinia enterocolitica YopH tyrosine phosphatase; fluorescence Ex485/Em525; inhibition, %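 (about 10 µM by stock and volumes)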; 140,000 compounds, 0.16% hits;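 active = inhibition of 50% or more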;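 also: controls were vehicle for no effect and minimum signal wells for full effect; inactives centre near -20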
Mtb H37Rv: M. tuberculosis H37Rv growth inhibitors, H37Rv strain (AID 1626) | M. tuberculosis H37Rv growth inhibition; higher % means a stronger effect | inhibition, % at 10 µM; hits with a dose series show IC50 in µM | 220,000 compounds, 0.95% hits;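 active = confirmed in a dose series; inconclusive = inhibition above 80% but not taken into the dose series; inactive = below 80% or under 30% at every dose of the series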;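 also: bacteria incubated seven days before Alamar blue readout; 0% = bacteria only wells and 100% = bacteria with antibiotic wells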
Arbovirus anti repeat: further read-out of Arbovirus anti, marked with its call; inhibition, %; measured here: 10K subset replicate screen; many hits read low in the repeat;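 first of two repeat runs on a subset; 0% = infected and 100% = uninfected wells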
Active calls of the source: *; ? = inconclusive; · = no result given.

SMILES | RecA splice inh | Arbovirus anti | Mtb bLac sens | YopH PTP inh | Mtb H37Rv | others
CCC(=O)NC(=S)Nc1ccc2oc(-c3ccc(OC)cc3)nc2c1 | 3.7 | -4 | -3 | · | ?
Cn1c(SCC(=O)Nc2ccc3c(c2)OCCO3)nnc1-c1ccco1 | 2.1 | 6 | -6 | -40 | 0%
CC1CCCCC1NC(=O)CSc1nncs1 (stereo not drawn) | -3.4 | 0 | -10 | 7 | -3%
CCOC(=O)c1oc2ccc(Br)cc2c1CSc1nnc(C)s1 | 0.2 | 5 | -5 | 88* | -1%
Cc1cc(C)n(-c2nc(Nc3ccccc3C)nc(-n3nc(C)cc3C)n2)n1 | 2.2 | 1 | 83 | 5 | 88µM*
O=C(O)c1ccc(OCC2CCCO2)cc1 (stereo not drawn) | -3.1 | · | -7 | · | ·
COC(=O)Nc1ccc(Cc2ccncc2)cc1 | 3.5 | 4 | -4 | · | 9%
COc1cc(SC)ccc1C(=O)Nc1nc(C)cs1 | 0.1 | -9 | 2 | · | -3%
CCC(C)[C@H](NC(=O)NC1CCCc2ccccc21)C(=O)OC (stereo partly drawn) | 2.9 | · | -5 | · | -8%
OC1(c2ccccc2F)CCN(Cc2nnnn2CCc2ccccc2)CC1 | 9.8 | 16 | 5 | -10 | 0%
Clc1cc(Br)ccc1NCc1cccnc1 | 1.0 | · | 7 | · | ·
O=C(O)c1ccc(CN2CCCCC2)o1 | 1.3 | 1 | 5 | -31 | -9%
COc1cc(C(=O)NCC(=O)Nc2ccc(F)c(F)c2)ccc1OCC(=O)N1CCOCC1 | -0.3 | · | -11 | · | ·
O=C1CC(N(Cc2ccc3c(c2)OCO3)C(=O)Nc2ccc(F)cc2)C(=O)N1c1ccccc1 (stereo not drawn) | -2.1 | -19 | -2 | -27 | 3%
COC(=O)c1cccc(NC(=O)c2cnoc2C)c1 | -0.1 | -3 | 1 | 7 | -1%
Cc1cc(C)nc(SCC(=O)Oc2ccc3oc(=O)cc(C)c3c2)n1 | -2.9 | 1 | 40 | 51* | 42% | Arbovirus anti repeat=7
O=C(CSc1nnc(-c2cccnc2)n1-c1ccc(F)cc1)NCc1ccc2c(c1)OCO2 | 1.7 | 7 | -18 | -22 | 4%
CCc1[nH]c(=S)c(C#N)c(-c2ccccc2)c1C(=O)OC | -1.4 | 7 | -11 | -26 | -3%
C=CCN(c1ccc(C(=O)NC(C)C)cc1)S(C)(=O)=O | 0.7 | -4 | -4 | 1 | -5%
CSc1nc(-c2ccc(Cl)cc2)c(C#N)c(=O)[nH]1 | 7.7 | 6 | -2 | · | 1%
COc1ccc(Cn2ccnc2SCC(=O)Nc2ccccc2)cc1 | -0.6 | · | 1 | · | ·
CSc1nc(C)cc(OCNC(=O)c2cccs2)n1 | 2.6 | -3 | -5 | -7 | ·
Cc1cc(C)c2c(CN3CCN(Cc4ccc5c(c4)OCO5)CC3)cc(=O)oc2c1C | -10 | -16 | 97 | -19 | 19µM*
O=C(CCN1C(=O)c2ccc(Br)cc2C1=O)NC1CCCCC1 | 1.6 | · | 5 | · | ·
Cn1nc(C(=O)NCc2cccc(Cl)c2)c2c1-c1ccccc1S(=O)(=O)C2 | -1.4 | · | 4 | · | ·
Cc1cccc(NC(=O)C2CC(=O)N(c3ccccc3)C2)c1C (stereo not drawn) | -1.1 | 3 | 3 | -19 | 4%
C=CCn1c(C)cc(C(=O)CSc2nc3ccccc3[nH]2)c1C | 4.4 | 9 | · | -18 | 1%
N#Cc1cnc(Sc2ccccc2)nc1 | 0.2 | -16 | 5 | · | 5%
Cc1ccccc1NC(=O)CN1CCN(C)CC1 | -0.9 | · | -6 | · | ·
O=C(COC(=O)c1ccc([N+](=O)[O-])s1)Nc1ccc(Cl)cn1 | · | -11 | 98 | -10 | ?
O=C(c1cc2cc(Br)ccc2oc1=O)N1CCN(c2ccccn2)CC1 | -0.4 | -4 | · | -26 | -6%
COC(=O)[C@@H]1C[C@@]2(O)[C@@H](O)[C@@H](O)[C@@H](O)C[C@H]2N1Cc1ccc(-c2ccccc2)cc1 | -0.3 | · | -1 | · | -10%
Cc1nccn1-c1ccc(C=O)cc1 | -1.7 | -3 | 0 | · | 1%
Cc1ccc(C(=O)C(C)OC(=O)CCN2C(=O)C3C4C=CC(C5CC45)C3C2=O)cc1 (stereo not drawn) | 1.0 | · | 1 | · | ·
NS(=O)(=O)c1ccc(N=Nc2c(O)c(C(=O)O)cc3ccccc23)cc1 | -8.7 | · | -6 | · | -18%
COc1ccccc1Nc1nnc(SCC(=O)Nc2cc(C)on2)s1 | -4.3 | -2 | -2 | -16 | -5%
Nc1nnc(CCc2ccccc2)s1 | -2.4 | 0 | -14 | -15 | -2% | Arbovirus anti repeat=5
Cc1nc(-c2ccc(S(=O)(=O)Nc3cccc(S(N)(=O)=O)c3)s2)cs1 | -1.4 | · | -2 | · | -2%
Cc1ccccc1OCCC(=O)OCC(=O)Nc1ccc2[nH]c(=O)[nH]c2c1 | -1.5 | · | 5 | · | ·
O=C(NC1CC1)C1CCN(C(=O)c2ccccc2Cl)CC1 | -1.8 | · | -7 | · | ·
CCC(C(=O)Nc1cccnc1Cl)c1ccccc1 (stereo not drawn) | -2.2 | · | 0 | · | ·
CCN(CC)c1ccc(NC(=O)CCNC(=O)c2ccco2)cc1 | -2.0 | -5 | 8 | -18 | 3%
O=[N+]([O-])c1ccc2c(c1)ncn2-c1ccccc1 | 0.8 | 6 | -5 | -14 | 4%
C=CCN1C(=O)CSc2ccc(C(=O)NC3CCCCC3)cc21 | 3.4 | · | -2 | · | ·
COc1ccc(CC(=O)N2CCCC2)c(OC)c1 | -1.0 | · | -12 | · | ·
Cc1cnc(C(=O)OCC(=O)N2c3ccccc3NC(=O)C2(C)C)cn1 | 1.8 | 2 | 46 | -32 | -9%
CC(=NCCc1ccccc1)C1=C(O)CSC1=O | -0.1 | 7 | 44 | -30 | -2% | Arbovirus anti repeat=-1
CS(=O)(=O)N(CC(=O)NCc1ccccc1Cl)c1cccc([N+](=O)[O-])c1 | 6.4 | -2 | 3 | · | 2%
COc1cccc(OC)c1C(=O)N1CCN(c2c(Cc3ccccc3)c(C)nc3ncnn23)CC1 | 2.7 | 8 | -7 | 0 | -3%
Cc1ccc(-c2cc(C(=O)N/N=C/c3c(C)nn(C)c3C)c3ccccc3n2)c(C)c1 | -0.1 | -10 | 12 | -14 | -3%
CSCC[C@H](NC(=O)Cc1c(C)c2c(cc(C)c3c(C)coc32)oc1=O)C(=O)O | -2.3 | · | -4 | · | ·
CCc1cc(C(=O)NNC(=S)Nc2ccccc2C)cs1 | -5.1 | -7 | 3 | -13 | -8%
c1ccc2c(c1)nc(NCc1ccc3c(c1)OCO3)n2CCN1CCOCC1 | 0.5 | -1 | -12 | · | -10%
CC1CCCC(NC(=O)COC(=O)CCc2ccccc2)C1C (stereo not drawn) | · | 0 | 3 | · | 1%
COc1ccc(-c2cc3nc(C)c(CCC(=O)NC(C)CCc4ccco4)c(C)n3n2)c(OC)c1 (stereo not drawn) | 0.3 | -22 | 87 | -33 | 10%
CCc1ccc(N(CC(=O)NC)S(C)(=O)=O)cc1 | 1.1 | 1 | -2 | -30 | -3%
O=C(CSc1nccn1Cc1ccco1)Nc1ccc(F)cc1 | 0.9 | · | ? | · | ·
Cc1ccc(Cl)cc1NC(=O)N(C)CCO | 4.1 | · | 0 | · | -3%
C[N+]1=C(/C=C/Nc2ccccc2Cl)C(C)(C)c2ccccc21 | 4.2 | 12 | 3 | -32 | 12%
O=C(CCn1c2c(c3ccccc31)CCCC2)NNC(=O)c1cccc([N+](=O)[O-])c1 | -0.4 | -7 | 6 | -25 | 1%

Next structures:
SMILES | RecA splice inh | Arbovirus anti | Mtb bLac sens | YopH PTP inh | Mtb H37Rv | others
O=[N+]([O-])c1cc(/C=N/O)ccc1Oc1ccccc1Cl | 5.9 | -2 | 6 | · | 6%
Cc1cc([N+](=O)[O-])nn1CC(=O)NCc1ccccc1 | 0.4 | · | -1 | · | ·
CCc1ccc(NC(=O)C(=O)NCCOc2ccccc2Cl)cc1 | -0.3 | 0 | -3 | · | -1%
O=C(CCCc1c[nH]c2ccccc12)N1CCN(S(=O)(=O)c2cccs2)CC1 | 2.3 | -1 | -5 | -38 | -4%
CCCCCCCCC1CC(C(=O)Nc2ccccc2)C(=O)O1 (stereo not drawn) | 2.4 | · | 100 | · | ·
CCC(=O)NC(=S)Nc1c(C)cc(Br)cc1C | 1.7 | -2 | -3 | · | 10%
Cc1c(Cl)cccc1NC(=O)C1CCN(c2cnccn2)CC1 | -11 | · | -4 | · | ·
CCN(CC)S(=O)(=O)c1ccc(N2CCOCC2)c(C(=O)O)c1 | -0.3 | 4 | -5 | -31 | -6%
CCc1cccc(NS(=O)(=O)c2ccc3c(c2)NC(=O)C(C)S3)c1 (stereo not drawn) | 3.0 | · | -2 | · | ·
Cc1cc(F)ccc1N1CCC(N2CCN(C(C)C)C(CCO)C2)CC1 (stereo not drawn) | -0.9 | -17 | -1 | · | 0%
COc1cc2c(cc1NC(=O)CSc1ccc(Cl)cc1)oc1ccccc12 | 1.7 | 8 | -4 | 5 | 5%
O=C(CN1C(=O)NC2(CCCc3ccccc32)C1=O)N1CCCCC1 (stereo not drawn) | -3.9 | · | -6 | · | ·
COc1ccc(N=CC2=C(O)c3ccccc3C2=O)cc1 | -2.3 | -18 | 73 | -10 | 69%
O=C(NNC(=O)C1CC(c2cccs2)=NO1)Nc1ccc(Cl)cc1 (stereo not drawn) | 0.3 | · | 2 | · | ·
Cc1cccc(NCC(=O)N/N=C/c2cccc(Br)c2)c1 | 1.1 | 4 | 17 | · | 1%
COc1ccc(OCC#CCN2CCC(C)CC2)cc1 | -0.8 | 4 | -1 | · | 4%
CSc1ccccc1NC(=O)N1CCC(CO)(CC2CCCCO2)CC1 (stereo not drawn) | -0.2 | -2 | 7 | · | -10%
CCCCN(C(=O)CCCc1nc2ccccc2c(=O)[nH]1)c1c(N)n(CCCC)c(=O)[nH]c1=O | 4.8 | · | -16 | · | ·
CCCCCNC(=O)CSC1=N/C(=C\c2ccc(Cl)c(Cl)c2)C(=O)N1CC | -0.1 | -4 | -18 | 2 | -14%
O=C(Cc1ccccc1)OCC(=O)N1CCN(S(=O)(=O)c2ccc(Cl)cc2)CC1 | -0.5 | · | -1 | · | ·
Cc1cccc(C)c1NC(=O)CN(C)CC(=O)Nc1sc2c(c1C(N)=O)CCC2 | 0.0 | · | 7 | · | ·
Cc1ccc(S(=O)(=O)N2CCN(C(=O)COC(=O)CNC(=O)c3ccccc3)CC2)c(C)c1 | -2.7 | · | -8 | · | ·
CCS(=O)(=O)Nc1cccc(-c2cn3c(n2)SCC3)c1 | -11 | · | -5 | · | ·
COc1ccccc1N1CCN(CC(=O)c2c(N)n(C)c(=O)n(C)c2=O)CC1 | 1.4 | -1 | -10 | · | 3%
CC(NS(=O)(=O)/C=C/c1ccccc1)C(=O)O (stereo not drawn) | -0.3 | 3 | 0 | · | -4%
Cc1noc(C)c1C(=O)N1CCCC(C(=O)c2cccc(OC(C)C)c2)C1 (stereo not drawn) | -1.0 | -2 | -3 | · | 9%
Cc1c(Br)c([N+](=O)[O-])nn1CC(=O)N1CCc2ccccc2C1 | 0.6 | 9 | -9 | -13 | 1%
Cc1ccc(Cn2c(SCCN3CCOCC3)nc3c2c(=O)n(C)c(=O)n3C)cc1 | 1.6 | 7 | 1 | -24 | -6%
CCCCC(=O)Nc1cccc(-c2nc3ncccc3o2)c1C | -0.7 | · | 0 | · | ·
CC(=O)c1cccc(OCc2cc(C(=O)N3CCSCC3)no2)c1 | -0.2 | · | 5 | · | ·
CC1CCN(C(=O)CCCOc2ccc(Cl)cc2)CC1 | 5.5 | -6 | -2 | -9 | 6%
Cc1cc(C)nc(/N=C(/NC(=O)Nc2cccc(Cl)c2)Nc2ccccc2)n1 | 3.0 | 6 | -1 | -27 | 1%

Entries above that have an NH in an aromatic ring (6):
SMILES | RecA splice inh | Arbovirus anti | Mtb bLac sens | YopH PTP inh | Mtb H37Rv | others
CCc1[nH]c(=S)c(C#N)c(-c2ccccc2)c1C(=O)OC | -1.4 | 7 | -11 | -26 | -3%
CSc1nc(-c2ccc(Cl)cc2)c(C#N)c(=O)[nH]1 | 7.7 | 6 | -2 | · | 1%
C=CCn1c(C)cc(C(=O)CSc2nc3ccccc3[nH]2)c1C | 4.4 | 9 | · | -18 | 1%
Cc1ccccc1OCCC(=O)OCC(=O)Nc1ccc2[nH]c(=O)[nH]c2c1 | -1.5 | · | 5 | · | ·
O=C(CCCc1c[nH]c2ccccc12)N1CCN(S(=O)(=O)c2cccs2)CC1 | 2.3 | -1 | -5 | -38 | -4%
CCCCN(C(=O)CCCc1nc2ccccc2c(=O)[nH]1)c1c(N)n(CCCC)c(=O)[nH]c1=O | 4.8 | · | -16 | · | ·

An excerpt. The share of hits here may be higher or lower than overall.
